Screening results as filed in PubChem BioAssay.
Ba CapD inh = inhibitors of Bacillus anthracis CapD enzyme; purified CapD enzyme, fluorescence intensity read-out; stronger effect = lower value; some hits fall short of the stated cut; z-score (no concentration beside the values); 140,000 tested, 0.23% active;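 active = z-score under -4 in either of two replicates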;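 note: stock transfer was 100 nL into about 40 µL; score is relative to mean and spread of the plate; one replicate is shown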
AID504770 = E. coli YBA685 growth inhibition, screen for V. cholerae RctB inhibitors. E. coli YBA685 rctB-dependent plasmid, OD600 growth, 3 h; stronger effect = lower value. z-score (concentration not given with the values). 130,000 tested, 0.27% active;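 active = z-score under -2 on both plates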;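 note: wells of about 30 µL received 100 nL stock; score is relative to mean and SD of the test wells; the first replicate is given; strong numbers were not always called active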
An asterisk follows results filed as active; . = no result given; & = joins results of further samples. Compounds were not picked by outcome; 0.39% or so of the library scored in one or more.

SMILES | Ba CapD inh | AID504770
CCOC(=O)c1cc2c(c(CSc3nc4cc(C(=O)NCCOC)ccc4c(=O)n3Cc3ccco3)c1)OCOC2 | 1.1 | .
N#C/C(=C/c1cccc2ccccc12)c1ccccc1 | 0.3 | -0.45
COc1ccccc1C1CC(=O)CC(c2ccccc2OC)S1 (stereo unspecified) | -1 | 2.1
C1=CC2c3cccc4c3N(CC2C1)CC1CC=CC41 (stereo unspecified) | 6.1 | .
CS(=O)(=O)c1cnc(-c2ccc(C(F)(F)F)nc2)nc1-c1cccc(F)c1 | -0.17 | .
CC1CC(=O)Nc2ccccc2N1S(=O)(=O)c1cccc2nonc12 (stereo unspecified) | 7.8 | -0.7
O=S(=O)(/C=C/c1ccccc1)N1CCN(c2ncc(C(F)(F)F)cc2Cl)CC1 | . | -0.25
COc1cc2c(cc1N=Cc1cccnc1)oc1ccccc12 | 79 | 0.25
COC(=O)c1sccc1N(C)S(C)(=O)=O | -0.15 | 0.65
CN(C(=O)CSc1nc2ccccc2n1CCC#N)c1ccccc1 | . | -0.75
Cc1cc(N2CCOCC2)nc(SCc2ccc(Cl)cc2Cl)n1 | 0.24 | .
CCCc1nnc(N)s1 | -0.15 | 0.7
Cc1nc(/N=C(\N)NC(=O)NC2CCCCC2)nc2ccccc12 | . | 0.15
COc1cc2c(cc1OC)C(C(C)C)=NC(C)(C)C2 | 42 | .
Clc1ccc(-c2nnc(CSc3nnc(SCC4CC4)s3)o2)cc1 | -1.4 | 0.15
CCN(CC)CCSc1nc(O)c(C)c(=O)[nH]1 | -1.6 | 1.4
C[C@@H]1CC[C@H]2[C@@H](C)C(=O)O[C@@H]3OC4(C)CC[C@@H]1[C@]32OO4 | 1.4&-0.14 | -0.65
CC1CN(C(=O)CSc2nc3c(cnn3-c3ccccc3)c(=O)[nH]2)CC(C)O1 (stereo unspecified) | . | 0.9
Clc1ccc2nc3c4ccccc4cnn3c2c1 | 2.8 | -0.7
CSC1=C(C#N)C(c2ccc(C)cc2)CC(=O)N1 (stereo unspecified) | 0.64 | -0.65
O=C(CSc1ccc(S(=O)(=O)N2CCCCC2)cn1)N1CCCC1 | . | 0.2
CC(=C1C(=O)c2ccccc2C1=O)N1CCN(c2cccc(Cl)c2)CC1 | -1.4 | -0.9
O=C(Nc1ccc(SC(F)F)cc1)C1=COCCO1 | . | -0.8
CC(Cc1cccs1)N(Cc1ccc(Cl)cc1)C(=O)c1ccncc1 (stereo unspecified) | -0.18 | -0.15
COc1cc([N+](=O)[O-])ccc1N1CCCC1 | -1.3 | .

Pulled one by one from the entries so far:
SMILES | Ba CapD inh | AID504770
COC(=O)c1sccc1N(C)S(C)(=O)=O | -0.15 | 0.65
CCN(CC)CCSc1nc(O)c(C)c(=O)[nH]1 | -1.6 | 1.4
COc1cc2c(cc1N=Cc1cccnc1)oc1ccccc12 | 79 | 0.25
Cc1cc(N2CCOCC2)nc(SCc2ccc(Cl)cc2Cl)n1 | 0.24 | .
C1=CC2c3cccc4c3N(CC2C1)CC1CC=CC41 (stereo unspecified) | 6.1 | .
O=C(Nc1ccc(SC(F)F)cc1)C1=COCCO1 | . | -0.8
CC1CN(C(=O)CSc2nc3c(cnn3-c3ccccc3)c(=O)[nH]2)CC(C)O1 (stereo unspecified) | . | 0.9

Other entries follow.
SMILES | Ba CapD inh | AID504770
O=C(Nc1ccc(-c2nnc3n2CCCCC3)cc1)c1ccco1 | -0.52 | -0.8
Cc1cc(C)c(C)c(Cn2cnc3ccccc32)c1C | -0.51 | -1
COCCC(=O)N1CCN(C/C=C/c2ccccc2)CC1 | 0.12 | .
CCOC(=O)c1cnn2c(C)c(Cc3cccc(F)c3)c(C)nc12 | 15 | -0.1
O=c1[nH]c(=O)c2nc3c(ccc4nsnc43)nc2[nH]1 | 3 | .
O=C(NNC(=O)c1ccoc1)OCc1ccccc1 | 0.03 | .
O=c1[nH]c(Cc2ccccc2)nc2c1C1(CCCC1)Cc1ccccc1-2 | -0.11 | .
CC(Nc1ccc(Br)cc1)C(=O)NC1CCCC1 (stereo unspecified) | . | 0.45
CCN(Cc1ccccc1)C(=O)C1(S(=O)(=O)c2ccc(C)cc2)CC1 | -0.64 | 2.2
COC(=O)CN(c1ccccn1)S(=O)(=O)c1ccccc1 | . | -0.9
CCOc1cc(C(=O)CCC(=O)N(C)Cc2cccnc2)ccc1O | . | 0.15
COC(=O)CCn1nc(-c2ccc(Cl)cc2)c2ccccc2c1=O | 0.38 | -0.35
C=CCN1C(=O)C(=O)/C(=C(\O)c2ccccc2)C1c1ccccc1Cl (stereo unspecified) | -2.8 | -0.6
Cc1c(NC(=O)CC2(CC(=O)N3CCOCC3)CCCC2)c(=O)n(-c2ccccc2)n1C | . | 0.75
COC(=O)n1ccc(C(=O)Nc2ccccc2F)n1 | 0.13 | -0.3
O=C(COC(=O)C1C2CC3OC(=O)C1C3C2)Nc1ccccc1 (stereo unspecified) | . | 1.1
O=C(c1ccc(F)cc1)C1CCN(C(=O)C2CC2)CC1 | . | -0.25
OCCNc1nc(Nc2ccc(Cl)cc2)nc(N2CCCC2)n1 | -0.18 | .
COc1cc(OC)c(OC)cc1CN1CCN(c2ccccc2F)CC1 | 0.41 | 1.6
COc1cc2c(cc1NC(=O)c1cccnc1)oc1ccccc12 | . | 0.7
COc1ccccc1NCC(=O)c1ccc(Cl)cc1 | 0.41 | 0.05
CC1=CS(=O)(=O)CC1Sc1nc2ccccc2[nH]1 (stereo unspecified) | -1.5 | 0.75
CCc1cc2c(=O)c(-c3ccccc3)coc2cc1O | 0.93 | 0
CCCN1CCC2(CC1)C(C#N)=C(S)NC(=O)C2C#N (stereo unspecified) | -1.2 | 1.5
CCOc1ccc(NC(=O)C(Nc2ccc(OCC)cc2)c2ccccc2)cc1 (stereo unspecified) | -0.37 | .
CC(NC(=O)C(O)(c1ccccc1)c1ccccc1)C(=O)O (stereo unspecified) | -0.55 | 0.1
COC(CNC(=O)/C=C1\Sc2ccccc2N(Cc2ccccc2F)C1=O)OC | 0.05 | 0.15
CCc1ccc(C2(c3ccc(CC)cc3)CC2C(=O)Nc2ccc(Cl)cc2)cc1 (stereo unspecified) | -0.47 | .
CC(C)(C)NC(=O)C1Cc2ccccc2CN1C(=O)Nc1ccc(Cl)cc1 (stereo unspecified) | -0.09 | .
O=C(NCCc1c[nH]c2ccc(Cl)cc12)OCc1cccc(Cl)c1 | -0.36 | .
N#CCCN1CC2CC(C1)c1cccc(=O)n1C2 (stereo unspecified) | 0.74 | .
CCOc1ccc(CC#N)cc1OCC | -0.88 | -0.15
O=[N+]([O-])c1cc(C(F)(F)F)ccc1N1CCOCC1 | -0.55 | .
CCOC(=O)c1ccc(N=C2SC(C(=O)Nc3ccccc3OC)CC(=O)N2C)cc1 (stereo unspecified) | -0.69 | .
Cc1nc2ccc(Br)cc2c2c1C(=O)N(NC(=O)/C=C/c1ccc(F)cc1Cl)C2=O | 49 | .
Cc1cccn2c(=O)c(C=NCc3ccccc3)c(NCc3ccco3)nc12 | 0.22 | 2
COc1cc2sc(=NC(=O)c3cccc(OC)c3OC)n(C)c2cc1OC | . | 2.3
O=C(N/N=C1\CCc2ccccc21)c1cccs1 | . | -0.55
CSc1cccc(NC(=O)CSc2nc3ccccc3[nH]2)c1 | 3.1 | -1.2
Cc1nnc(N2CCCC(C(=O)NCCN3CCOCC3)C2)c2nn(-c3ccc(Cl)cc3)c(C)c12 (stereo unspecified) | 2.9 | -0.4
C[C@@H]1CC2C3CCC4=CC(=O)C=C[C@]4(C)[C@@]3(F)[C@@H](O)C[C@]2(C)[C@@]1(O)C(=O)COP(=O)(O)O (stereo partly specified) | 0.14 | 0.05
COc1ccccc1Oc1ncnc2sc(-c3ccccc3)cc12 | 3.8 | -1.3
CC1(C)[C@@H](OC(=O)CCC(=O)O)CC[C@]2(C)[C@H]3C(=O)C=C4[C@@H]5C[C@@](C)(C(=O)O)CC[C@]5(C)CC[C@@]4(C)[C@]3(C)CC[C@@H]12 | -1.2 | .
CCN(CC)CC(=O)Oc1ccc(NC2=NS(=O)(=O)c3ccccc32)cc1 | . | 0.2
Cc1nc(SC(C)C(=O)Nc2c(C)n(C)n(-c3ccccc3)c2=O)nc(C)c1C (stereo unspecified) | . | -1.7
COC(=O)c1cc(S(=O)(=O)C(C)C)c(SC)s1 | -0.64 | 0.85
CCN(C(=O)c1cccc(S(=O)(=O)N2CCCCC2)c1)C1CCS(=O)(=O)C1 (stereo unspecified) | . | 1.8
CCOC(=O)C1CCCCN1C(=O)c1sc2ncnc(N3CCN(c4ccccn4)CC3)c2c1C (stereo unspecified) | -0.48 | .
CCOC(=O)N1CCC(NC(=O)c2sc3nc(C)cc(C)c3c2-n2cccc2)CC1 | 0.95 | -0.25
COCc1cc(C)nc(SCC(=O)Nc2nnc(C(F)(F)F)s2)c1C#N | . | 1.4

(continued)
SMILES | Ba CapD inh | AID504770
OC(c1cccnc1)c1cccs1 (stereo unspecified) | 0.29 | -0.45
NC(=O)c1ccc[n+](CC(=O)N2CCOCC2)c1 | 0.14 | -0.7
O=c1[nH]cnc2sccc12 | . | 0
C=CCn1c(NC(C)=O)c(C#N)c2nc3ccccc3nc21 | 48 | -1.1
CCC(=O)Nc1ccc2c(C)cc(C)nc2n1 | 17 | 0.75
COc1cccc(-c2nn(-c3cc(C(F)(F)F)ccn3)c(=O)o2)c1 | 0.94 | -0.7
COc1ccc(/C=C2\CN(C)C/C(=C\c3ccc(OC)cc3)C2=O)cc1 | -0.23 | -0.35
Cc1cc(C(=O)COC(=O)C2CC2)c(C)n1-c1ccc(F)cc1 | . | -0.3
Cc1noc(C)c1CSc1ncnc2sc3c(c12)CCC3 | -0.095 | 0.25
COc1cc(C(=O)NNC(=O)OCCc2c(C)cc(C)cc2C)ccc1O | -0.73 | .
Cc1ccc(Oc2ncccc2C(=O)O)cc1 | 2.4 | 0.65
COc1ccccc1C1CCN(C(=O)c2cccs2)CC1 | -1 | 1.6
C=CCN1N=C(c2ccc(C)cc2)SC(C)=C1c1ccc(OC)cc1 | -0.15 | .
Brc1ccc2c(c1)C=CC2 | 0.57 | -0.6
CCn1cc(C(=O)N2CCCC2)c(=O)c2cc(S(=O)(=O)N(C)C)ccc21 | 5.6 | 0.2
CN(Cc1ccccc1)C(=O)c1ccccc1NC(=O)C1CC1 | 0.11 | 0.15
COc1ccc(CCNC(=O)NC2CC(=O)N(c3ccc4c(c3)OCCO4)C2)cc1OC (stereo unspecified) | . | -0.15
O=C(CSc1nnc(-c2ccc(S(=O)(=O)N3CCCC3)cc2)n1CC1CCCO1)NC1CC1 (stereo unspecified) | . | -0.05
Cc1ccc(NC(=O)c2ccc(CSc3ncnc4nc[nH]c34)cc2)cc1 | -2.3 | 0.6
CC1(C)CC(=O)C2=C(C1)NC(=O)NC2c1c(O)ccc2ccccc12 (stereo unspecified) | . | -0.3
NC(=O)c1cc2c(ccc3ccccc32)oc1=O | . | -0.7
CCCc1ccc(-c2nc(-c3cccs3)no2)cc1 | -0.24 | 1.4
O=C(CN1CCCCC1)N1c2ccccc2C=Cc2ccccc21 | 0.15 | .
Cc1ccc(C(=O)COC(=O)c2ccc(N3C(=O)C4CCC(C)CC4C3=O)cc2)cc1[N+](=O)[O-] (stereo unspecified) | -0.4 | .
c1ccc(CCn2c(COc3ccccc3)nc3ccccc32)cc1 | 0.035 | -0.55

Arranged by SMILES length (low to high): some entries from above
SMILES | Ba CapD inh | AID504770
O=C(CN1CCCCC1)N1c2ccccc2C=Cc2ccccc21 | 0.15 | .
c1ccc(CCn2c(COc3ccccc3)nc3ccccc32)cc1 | 0.035 | -0.55
O=C(CSc1nnc(-c2ccc(S(=O)(=O)N3CCCC3)cc2)n1CC1CCCO1)NC1CC1 (stereo unspecified) | . | -0.05

New compounds follow:
SMILES | Ba CapD inh | AID504770
Cc1cc(N2CCCC2)ccc1/C=C(/C#N)c1ccc(F)cc1 | -2.9 | -0.4
CSc1sc(C(=O)NN)cc1-c1nc(C)cs1 | 1.6 | -0.15
CC(C)CCNC(=O)c1cccn2c(=O)c3c4c(sc3nc12)CCCC4 | 15 | 0.1
CCN(CC)c1ccc2cc(-c3nc(-c4ccc(Cl)cc4)cs3)c(=Nc3ccc(OC)cc3)oc2c1 | 0.36 | .
CC1(C)Oc2ccc3ccc(=O)oc3c2C/C1=N/NC(N)=O | 87 | 0.5
COc1ccc(-c2ocnc2C(=O)Nc2ccc(F)cc2F)cc1 | . | -0.45
O=C(Nc1nnc(-c2cccs2)o1)c1ccccc1 | -0.89 | 0.05
c1ccc(-c2cn3ccc4ccccc4c3n2)cc1 | 65 | .
CCOC(=O)c1cc(-c2ccccc2)n(-c2ccc(C(=O)NCc3ccco3)cc2)c1C | -0.045 | 0.1
C=CCSc1nnc(N)s1 | . | -0.5
COC(=O)CSc1nn(-c2ccc(F)cc2)c(=S)s1 | . | 1.1
COc1ccc(-c2nn(-c3ccccc3)cc2/C=C\C(=O)N(C)C)cc1 | 1.4 | 0.35
Cc1ccc(S(=O)(=O)N(CCO)Cc2ccccc2)cc1 | . | -0.25
Cn1nc(C(F)(F)F)c(CNc2ccc(Cl)c(Cl)c2)c1Cl | -0.81 | .
Cc1nn(CC(=O)NC(C)CCc2ccccc2)c(=O)c2cc3sccc3n12 (stereo unspecified) | -1 | -0.35
CSc1nc(N)nc(SCc2ccc(Cl)c(Cl)c2)c1C#N | 0.12 | .
CN(CCO)c1cc(N2CCCCCC2)c2nonc2c1[N+](=O)[O-] | -2.7 | .
CC12CCC(C(=O)NC3CCCCC3)(CC1=O)C2(C)C (stereo unspecified) | 0.42 | -0.55
